Screening data as filed in PubChem BioAssay.
Yeast UUG start: modulators of yeast start codon fidelity, primary screen, whole organism, S. cerevisiae, single point, plate reader. S. cerevisiae UUG-firefly luciferase reporter, luminescence/redox ratio. activity score, % at 18.7 µM. 350,000 compounds, 0.13% hits. AID 602363, 2012;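 active means replicate mean at a twofold rise or more, about +100% in these data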;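 further: firefly luciferase made from a UUG start codon reports start codon fidelity; reporter light over untreated wells divided by growth signal over untreated wells; some hits fall short of that in this replicate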
Env fusion inh: inhibitors of HIV-1 Env-driven cell-cell fusion, primary screen, HeLa-JRFL effector, CEM21 target cells, luciferase; inhibition, % at 12.3 µM; AID 651610, 2012; 360,000 compounds, 1.1% hits;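 active means mean replicate inhibition score of at least 50 and every replicate individually at or above 50; inconclusive means only one of the two criteria met; inactive means mean below 50 and not all replicates reaching 50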;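 further: 0% = plate neutral controls and 100% = maraviroc near 300 nM; one replicate is shown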
Numbers without * were called inactive; ? = inconclusive; [ ] = remark or other dose.

No.	Yeast UUG start	Env fusion inh	SMILES
1	-3.1	-19.0[16.7 µM]	CS(=O)(=O)Nc1ccc2c(c1)[C@@H]1C[C@@H](CC(=O)NCc3ccc(Oc4ccccc4)cc3)O[C@H](CO)[C@@H]1O2
2	-1.9	1.6[16.7 µM]	C[C@@H]1CN([C@@H](C)CO)C(=O)c2cc(Br)cnc2O[C@@H]1CN(C)C(=O)c1ccccn1
3	1.0	11.8[16.7 µM]	C[C@@H]1CN([C@@H](C)CO)S(=O)(=O)c2ccc(C#Cc3cccnc3)cc2O[C@H]1CN(C)C(=O)Nc1ccc2c(c1)OCO2
4	-3.3	28.8	CCOC(=O)c1ccn(S(=O)(=O)c2ccc(C)cc2)c1-c1ccccc1
5	-6.7	19.2[16.7 µM]	CCNC(=O)C[C@@H]1C=C[C@@H](NS(=O)(=O)c2ccc(F)cc2)[C@H](CO)O1
6	5.5	-1.2[16.7 µM]	Cc1ccc(S(=O)(=O)N(C)C[C@H]2Oc3ccc(NC(=O)Nc4ccc5c(c4)OCO5)cc3C(=O)N([C@@H](C)CO)C[C@@H]2C)cc1
7	-20.8	-1.2[16.7 µM]	O=C(C[C@H]1CC[C@@H](NC(=O)C2CCOCC2)[C@@H](CO)O1)NCC1CCCCC1
8	2.4	-35.8[16.7 µM]	C[C@H](CO)N1C[C@H](C)[C@@H](CN(C)C(=O)c2ccccc2)OCCCC[C@H](C)Oc2ccc(NC(=O)Nc3ccccc3)cc2C1=O
9	16.3	10.4[16.7 µM]	C[C@@H]1CN([C@H](C)CO)C(=O)c2cc(NS(=O)(=O)c3ccccc3)ccc2O[C@@H](C)CCCCO[C@@H]1CN(C)C(=O)CCCN(C)C
10	11.6	-0.9[16.7 µM]	C[C@H](CO)N1C[C@H](C)[C@H](CN(C)CC2CC2)Oc2ccc(NC(=O)CCC(F)(F)F)cc2CC1=O
11	6.7	-1.5[16.7 µM]	Cc1noc(C)c1S(=O)(=O)Nc1ccc2c(c1)C(=O)N([C@H](C)CO)C[C@@H](C)[C@H](CN(C)C(=O)C1CCCCC1)OCCCC[C@@H](C)O2
12	1.4	4.5[16.7 µM]	COC(=O)C[C@H]1CC[C@@H]2[C@@H](COc3ccc(NC(=O)c4cccs4)cc3C(=O)N2C)O1
13	-10.3	8.5[16.7 µM]	COc1cccc(C(=O)Nc2ccc3c(c2)OC[C@H](C)N(C)C[C@@H](C)[C@H](OC)CN(C)C3=O)c1
14	6.9	-18.7[16.7 µM]	Cc1noc(C)c1S(=O)(=O)N(C)C[C@@H]1OCCCC[C@@H](C)Oc2ccc(NC(=O)CCCN(C)C)cc2C(=O)N([C@H](C)CO)C[C@@H]1C
15	1.1	3.7[16.7 µM]	C[C@@H]1CN([C@H](C)CO)C(=O)c2cc(C#Cc3ccccn3)cnc2O[C@H]1CN(C)CC1CCOCC1
16	15.1	11.8[16.7 µM]	O=S(=O)(N[C@@H]1CC[C@H](CCn2cc(C3(O)CCCC3)nn2)O[C@H]1CO)c1ccc(Cl)cc1
17	-5.8	16.4[16.7 µM]	C[C@H]1CN([C@@H](C)CO)C(=O)c2cccc(NC(=O)Nc3cccc4ccccc34)c2O[C@H]1CN(C)C(=O)Nc1ccc(F)cc1
18	-8.6	2.6[16.7 µM]	CO[C@@H]1CN(C)C(=O)c2cc(NC(C)=O)ccc2OC[C@@H](C)N(Cc2ccccc2F)C[C@H]1C
19	4.7	19.0[16.7 µM]	Cc1noc(C)c1NC(=O)N(C)C[C@@H]1Oc2ncc(C#CCC(C)C)cc2C(=O)N([C@@H](C)CO)C[C@H]1C
20	5.8	-8.5[16.7 µM]	COc1ccc(S(=O)(=O)Nc2ccc3c(c2)C(=O)N([C@@H](C)CO)C[C@@H](C)[C@@H](CN(C)S(=O)(=O)c2cccs2)O3)cc1
21	-7.2	-2.9[16.7 µM]	C[C@H](CO)N1C[C@H](C)[C@H](CN(C)Cc2cccnc2)Oc2ncc(C3=CCCCC3)cc2C1=O
22	13.2	22.4[16.7 µM]	C[C@H]1CN([C@@H](C)CO)S(=O)(=O)c2ccc(C3=CCCCC3)cc2O[C@H]1CN(C)C(=O)C1CCCCC1
23	10.0	-1.8[16.7 µM]	C[C@H](CO)N1C[C@H](C)[C@H](CN(C)C(=O)NC2CCCCC2)Oc2ncc(C#Cc3ccccc3)cc2C1=O
24	-1.0	5.6[16.7 µM]	C[C@H](CO)N1C[C@H](C)[C@@H](CN(C)Cc2ccncc2)Oc2ncc(C3=CCCCC3)cc2C1=O
25	4.8	?	C[C@@H]1CN([C@@H](C)CO)C(=O)c2cccc(N(C)C)c2O[C@@H]1CN(C)C(=O)Nc1cccc2ccccc12
26	-14.1	4.3[16.7 µM]	C[C@H]1CN([C@@H](C)CO)S(=O)(=O)c2ccc(-c3cccnc3)cc2O[C@H]1CN(C)Cc1cncnc1
27	15.2	-14.5[16.7 µM]	CCCNC(=O)C[C@H]1CC[C@@H]2[C@H](COc3ccc(NS(=O)(=O)c4ccccc4C)cc3C(=O)N2C)O1
28	-22.6	29.6[16.7 µM]	CC(C)CC#Cc1ccc2c(c1)O[C@@H](CN(C)C(=O)C1CCCCC1)[C@@H](C)CN([C@H](C)CO)S2(=O)=O
29	48.7	-17.3[16.7 µM]	CCCNC(=O)N1[C@H](C#N)[C@H](c2ccc(-c3cccnc3)cc2)[C@H]1CO
30	-3.8	7.6[16.7 µM]	O=C(N[C@@H]1C=C[C@@H](CC(=O)N2CCN(c3ccccc3)CC2)O[C@@H]1CO)c1ccccc1
31	-6.1	0.3[16.7 µM]	Cc1ccc(S(=O)(=O)Nc2cccc3c2O[C@@H](CN(C)C)[C@H](C)CN([C@@H](C)CO)C3=O)cc1
32	5.2	-6.6[16.7 µM]	COc1ccc(S(=O)(=O)N[C@H]2CC[C@@H](CC(=O)NCCc3ccccc3)O[C@@H]2CO)cc1
33	17.7	-6.0[16.7 µM]	COc1ccc(S(=O)(=O)Nc2ccc3c(c2)C(=O)N([C@H](C)CO)C[C@H](C)[C@H](CN(C)C(=O)Nc2ccccc2)O3)cc1
34	-2.9	8.6[16.7 µM]	CCNC(=O)C[C@@H]1CC[C@@H]2[C@@H](COc3ccc(NC(=O)c4cc(C)on4)cc3C(=O)N2C)O1
35	18.8	-5.7[16.7 µM]	C[C@H](CO)N1C[C@H](C)[C@@H](CN(C)C(=O)c2ccccc2)Oc2cc(-c3cccc(C#N)c3)ccc2S1(=O)=O
36	-0.5	10.6[16.7 µM]	Cc1nn(C)cc1NC(=O)C[C@@H]1CC[C@@H]2[C@H](COc3ccc(NC(=O)NC(C)C)cc3C(=O)N2C)O1
37	4.1	-6.2[16.7 µM]	COc1ccccc1S(=O)(=O)N[C@H]1CC[C@H](CCNC(=O)C2CCCC2)O[C@@H]1CO
38	18.8	-21.8[16.7 µM]	CCCN(C)C[C@@H]1OCCCC[C@H](C)Oc2ccc(NC(=O)CCC(F)(F)F)cc2C(=O)N([C@H](C)CO)C[C@@H]1C
39	1.0	5.5[16.7 µM]	C[C@@H]1CN([C@@H](C)CO)C(=O)c2cc(NS(=O)(=O)c3cn(C)cn3)ccc2O[C@@H](C)CCCCO[C@H]1CN(C)C(=O)Nc1cccc2ccccc12
40	1.8	14.7[16.7 µM]	C[C@@H]1CN([C@H](C)CO)C(=O)c2cc(C#CCN(C)C)cnc2O[C@@H]1CN(C)C(=O)CN1CCOCC1
41	13.0	5.9[16.7 µM]	C[C@H]1CN([C@@H](C)CO)S(=O)(=O)c2ccc(C#CCN(C)C)cc2O[C@@H]1CN(C)C(=O)CC1CC1
42	-4.8	-8.9[16.7 µM]	CNC(=O)C[C@@H]1CC[C@@H]2[C@H](COc3ccc(NC(=O)c4cccc(OC)c4)cc3C(=O)N2C)O1
43	-20.8	-19.7[16.7 µM]	CCCc1cn(CC[C@@H]2CC[C@H](NC(=O)C3CCCCC3)[C@H](CO)O2)nn1
44	6.9	30.1[16.7 µM]	COC(=O)[C@]1(Cc2ccccc2)N=C(c2ccc(OCCCO)cc2)O[C@@H]1c1ccccc1N=[N+]=[N-]
45	12.6	1.4[16.7 µM]	O=C(Nc1ccccc1)N[C@@H]1CC[C@H](CCn2cc(C3(O)CCCC3)nn2)O[C@H]1CO
46	-9.0	94.2*[16.7 µM]	C[C@H](CO)N1C[C@H](C)[C@H](CN(C)S(=O)(=O)c2ccccc2)Oc2ccc(NC(=O)Cc3cn(C)c4ccccc34)cc2CC1=O
47	-1.3	17.8[16.7 µM]	CC(C)C(=O)Nc1ccc2c(c1)C(=O)N(C)[C@H]1CC[C@@H](CC(=O)NCc3cccc(F)c3)O[C@@H]1CO2
48	-7.5	-1.1[16.7 µM]	O=C(Nc1ccc(Cl)cc1)N[C@@H]1CC[C@@H](CCn2cc(-c3ccccc3F)nn2)O[C@H]1CO
49	4.8	-42.8[16.7 µM]	C[C@@H]1CCCCO[C@H](CN(C)C(=O)Nc2ccc(C(F)(F)F)cc2)[C@@H](C)CN([C@H](C)CO)C(=O)c2cc(NC(=O)C3CCCCC3)ccc2O1
50	-9.9	43.4[16.7 µM]	C[C@H]1CN([C@@H](C)CO)C(=O)c2cccc(NC(=O)c3cnccn3)c2O[C@@H]1CN(C)CC1CC1
51	1.8	-1.4[16.7 µM]	O=S(=O)(Cc1ccccc1)NCC[C@@H]1CC[C@H](NS(=O)(=O)c2ccccc2)[C@@H](CO)O1
52	-1.0	-0.8[16.7 µM]	C[C@H]1CCCCO[C@@H](CN(C)Cc2ccc(C(F)(F)F)cc2)[C@@H](C)CN([C@@H](C)CO)C(=O)c2cc(NS(=O)(=O)c3ccccc3)ccc2O1
53	-7.0	19.3[16.7 µM]	CCCNC(=O)[C@@]1(c2ccc([N+](=O)[O-])cc2)CC(=O)N(CC23CC4CC(CC(C4)C2)C3)[C@@H]1c1ccc(CO)cc1I
54	2.5	-84.5[16.7 µM]	C[C@@H]1CN([C@H](C)CO)C(=O)c2cccc(NC(=O)c3cnccn3)c2O[C@@H]1CN(C)Cc1ccc(Cl)c(Cl)c1
55	3.2	8.7[16.7 µM]	COc1ccc(-c2cnc3c(c2)C(=O)N([C@H](C)CO)C[C@H](C)[C@H](CN(C)C(=O)Nc2ccc(F)cc2)O3)cc1
56	-5.2	0.6[16.7 µM]	COc1ccc(CN(C)C[C@H]2OCc3cn(nn3)CCCC(=O)N([C@H](C)CO)C[C@H]2C)cc1
57	-3.8	1.8[16.7 µM]	CN1C(=O)c2cc(NC(=O)c3ccc(C(F)(F)F)cc3)ccc2OC[C@@H]2O[C@H](CC(=O)NCc3ccc4c(c3)OCO4)CC[C@H]21
58	-1.2	-2.6[16.7 µM]	C[C@@H]1CCCCO[C@H](CN(C)Cc2ccc3c(c2)OCO3)[C@@H](C)CN([C@H](C)CO)C(=O)c2cc(NS(=O)(=O)c3cn(C)cn3)ccc2O1
59	-3.5	10.2[16.7 µM]	O=C(Cc1ccncc1)Nc1ccc2c(c1)[C@@H]1C[C@@H](CC(=O)NC3CCCC3)O[C@H](CO)[C@@H]1O2
60	-6.4	21.3[16.7 µM]	C[C@@H]1CN([C@H](C)CO)C(=O)c2cc(C#CC3(O)CCCC3)cnc2O[C@H]1CN(C)S(=O)(=O)c1ccccc1

Additional entries.
No.	Yeast UUG start	Env fusion inh	SMILES
61	8.8	0.8[16.7 µM]	Cc1noc(C)c1S(=O)(=O)Nc1ccc2c(c1)C(=O)N([C@H](C)CO)C[C@H](C)[C@@H](CN(C)S(C)(=O)=O)OCCCC[C@H](C)O2
62	4.9	-13.5[16.7 µM]	O=C(CCN1CCCCC1)NCC[C@H]1CC[C@@H](NC(=O)c2ccc(F)cc2)[C@@H](CO)O1
63	-0.5	5.1[16.7 µM]	C[C@H](CO)N1C[C@H](C)[C@@H](CN(C)CC2CCCCC2)OCCCC[C@H](C)Oc2ccc(NC(=O)Nc3ccc4c(c3)OCO4)cc2C1=O
64	-17.4	-7.9[16.7 µM]	C[C@H]1CN([C@@H](C)CO)C(=O)Cc2cc(NS(=O)(=O)c3cccs3)ccc2O[C@@H]1CN(C)C(=O)Nc1ccc(F)cc1
65	7.8	-3.4[16.7 µM]	C[C@H](CO)N1C[C@H](C)[C@@H](CN(C)C(=O)CN(C)C)Oc2cc(-c3ccccc3)ccc2S1(=O)=O
66	-4.8	0.0[16.7 µM]	C[C@@H]1CN([C@@H](C)CO)C(=O)c2cccc(NC(=O)c3ccncc3)c2O[C@H]1CN(C)CC1CC1
67	-10.3	-19.4[16.7 µM]	C[C@H]1CN([C@@H](C)CO)C(=O)c2cc(-c3ccncc3)cnc2O[C@@H]1CN(C)C(=O)c1ccc(F)cc1
68	4.9	-16.1[16.7 µM]	COc1cccc(NC(=O)N(C)C[C@@H]2Oc3cc(C#Cc4ccncc4)ccc3S(=O)(=O)N([C@@H](C)CO)C[C@@H]2C)c1

Some of the compounds tested, so the mix of outcomes need not match the whole.
